# MT1-MMP act inh: blockers of MT1-MMP proenzyme processing, primary screen, HT1080 RFP-PRO-GFP cells, GFP/RFP fluorescence; Matrix metalloproteinase-14 (Homo sapiens), P50281; GFP/RFP ratio fluorescence, overnight; percent of plate control window, DMSO zero; 0.061% of 360,000 active; GFP/RFP ratio change, % at 20 µM;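 active = GFP/RFP ratio change of at least 30% with cell ATP level not reduced by more than half and red fluorescence within 50% of control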; note: strong numbers were not always called active
#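 Assay system: HT1080 RFP-PRO-GFP cells | Dosing: 20 µM single dose, 1% DMSO | Incubation: Cells overnight before dosing, compound overnight, 37 °C, 5% CO2 | Evaluation: GFP/RFP fluorescence ratio | Control set: DMSO-only wells and HT1080 RFP-L50D-GFP cell wells as references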
# Yeast UUG start: modulators of yeast start codon fidelity, primary screen, whole organism, S. cerevisiae, single point, plate reader | S. cerevisiae UUG-firefly luciferase reporter, luminescence/redox ratio | activity score, % at 18.7 µM | 0.13% of 350,000 active | AID 602363, 2012;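 active = replicate mean at a twofold rise or more, about +100% in these data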;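 note: firefly luciferase made from a UUG start codon reports start codon fidelity; reporter light over untreated wells divided by growth signal over untreated wells; some hits fall short of that in this replicate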
# PABP FP inh: PABP poly(A) RNA binding inhibitors, primary screen, biochemical, fluorescence polarization, uHTS; 1% of 290,000 active; AID 2014, 2009; inhibition, % at 35 µM;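 active = 50% or more with normal probe brightness, or confirmed in later tests; inconclusive = above 50% with abnormal brightness, or retests that disagree; inactive = below 50% or failed in later tests; about a fifth of its hits are not listed in these tables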;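 note: calls also rest on retests at 20 µM and on dose response follow-up; controls were probe without protein and protein plus probe with vehicle; some compounds called inactive have numbers as strong as hits; many hits fall short of the cut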
# Target sequence (P11940 whole entry, looked up): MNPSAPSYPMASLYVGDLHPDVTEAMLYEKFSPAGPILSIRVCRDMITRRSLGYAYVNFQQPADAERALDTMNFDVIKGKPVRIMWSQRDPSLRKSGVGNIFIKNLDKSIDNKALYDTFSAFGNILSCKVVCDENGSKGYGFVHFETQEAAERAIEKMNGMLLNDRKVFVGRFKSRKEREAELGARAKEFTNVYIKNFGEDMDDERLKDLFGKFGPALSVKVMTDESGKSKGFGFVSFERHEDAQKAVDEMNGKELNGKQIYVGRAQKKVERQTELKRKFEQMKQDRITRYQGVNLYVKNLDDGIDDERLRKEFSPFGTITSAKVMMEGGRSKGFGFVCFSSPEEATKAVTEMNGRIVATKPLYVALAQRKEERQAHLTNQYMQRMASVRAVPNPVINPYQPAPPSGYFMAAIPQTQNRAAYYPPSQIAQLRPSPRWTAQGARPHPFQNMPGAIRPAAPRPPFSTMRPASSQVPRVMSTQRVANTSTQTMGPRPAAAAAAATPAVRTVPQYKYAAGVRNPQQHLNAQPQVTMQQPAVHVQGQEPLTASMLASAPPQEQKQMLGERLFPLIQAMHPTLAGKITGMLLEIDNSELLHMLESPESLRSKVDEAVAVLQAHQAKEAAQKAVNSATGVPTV
# Rce1 inhib: yeast Rce1p protease inhibitors, primary screen, biochemical, fluorescence, cell-free homogeneous. CAAX prenyl protease 2 (Saccharomyces cerevisiae (strain ATCC 204508 / S288c)), Q03530. 0.27% of 290,000 active. calls only. yeast membranes, quenched prenylated peptide cleavage fluorescence;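 active = fall in fluorescence gain of 50% or more versus controls, with final raw signal at or below 3038400; inconclusive = same 50% fall but final raw signal above 3038400; inactive = fall in fluorescence gain under 50%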;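 note: plate controls were neutral control wells for no effect and wells lacking membranes for full effect; tested at 10 µM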
# CSC inhib: cancer stem cell viability inhibitors, primary screen, luminescence; inhibition, % at 7.5 µM; 1.1% of 300,000 active; cancer stem cell-like cells viability;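 active = mean at 75% or more and at least half the replicates too; inconclusive = mean and replicates disagree; tested in HMLE shEcad cells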;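 note: 0% = median of negative and 100% = median of positive control wells; the first replicate is given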
# HIV Env fusion: inhibitors of HIV-1 Env-driven cell-cell fusion, primary screen, HeLa-JRFL effector, CEM21 target cells, luciferase. inhibition, % at 12.3 µM. 1.1% of 360,000 active;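 active = mean replicate inhibition score of at least 50 and every replicate individually at or above 50; inconclusive = only one of the two criteria met; inactive = mean below 50 and not all replicates reaching 50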;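 note: 0% = plate neutral controls and 100% = maraviroc near 300 nM; one replicate is shown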
# eIF4H FP inh: human eIF4H binding inhibitors, primary screen, translation initiation inhibitor project, biochemical, uHTS, fluorescence polarization; eIF4H fluorescence polarization binding assay; inhibition, % at 35 µM; 0.94% of 290,000 active; AID 2012, 2009;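 active = 50% or more with normal probe brightness, or confirmed in later tests; inconclusive = above 50% with abnormal brightness, or retests that disagree; inactive = below 50% or failed in later tests; about a fifth of its hits are not listed in these tables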;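 note: calls also rest on retests at 20 µM and on dose response follow-up; 0% = protein and probe with vehicle and 100% = probe without protein; strong numbers were not always called active; many hits fall short of the cut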
# eIF4H FP inh retest: further read-out of eIF4H FP inh, marked with its call; inhibition, %; compound at 20 µM; confirmation average;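 mean of two retest wells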
# PABP FP inh retest: recorded beside PABP FP inh, whose call it bears; inhibition, %; compound at 20 µM; confirmation repeats;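 mean of two retest wells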
# MT1-MMP act inh RFP: second read-out of MT1-MMP act inh, no call of its own (marks repeat the call); RFP signal change, %; measured here: RFP expression control read;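 0 = vehicle wells; hits needed this value within 50% of zero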
# An asterisk follows results filed as active; i = inactive; ? = inconclusive; . = not tested or not shown; + = active, no number. A portion of the library. The share of hits here may be higher or lower than overall.
# Start of the listing, in advance:
SMILES,MT1-MMP act inh,MT1-MMP act inh RFP,Yeast UUG start,PABP FP inh,Rce1 inhib,CSC inhib,HIV Env fusion,eIF4H FP inh,others
O=C(N[C@H]1/C=C\[C@@H](O)CCCC1)OCc1ccccc1,2,4,-16,.,.,.,-37,.,
C[C@@H]1CC=C[C@H]2[C@H]1C(=O)N(Cc1ccccc1)[C@H]2c1ccc(Br)cc1F,6,-6,-31,-3,i,31,37,-23,
CC(C)c1onc(C(=O)NC2CCCC2)c1[N+](=O)[O-],-2,3,.,55*,i,-30,-61,8.3*,eIF4H FP inh retest=87*;PABP FP inh retest=79*
COc1ccc(CC(=O)Oc2ccccc2[N+](=O)[O-])cc1,3,2,-9,1,i,1,4,0,

# The list itself, from the start:
SMILES,MT1-MMP act inh,MT1-MMP act inh RFP,Yeast UUG start,PABP FP inh,Rce1 inhib,CSC inhib,HIV Env fusion,eIF4H FP inh,others
O=C(N[C@H]1/C=C\[C@@H](O)CCCC1)OCc1ccccc1,2,4,-16,.,.,.,-37,.,
C[C@@H]1CC=C[C@H]2[C@H]1C(=O)N(Cc1ccccc1)[C@H]2c1ccc(Br)cc1F,6,-6,-31,-3,i,31,37,-23,
CC(C)c1onc(C(=O)NC2CCCC2)c1[N+](=O)[O-],-2,3,.,55*,i,-30,-61,8.3*,eIF4H FP inh retest=87*;PABP FP inh retest=79*
COc1ccc(CC(=O)Oc2ccccc2[N+](=O)[O-])cc1,3,2,-9,1,i,1,4,0,
O=[N+]([O-])c1cccc(S(=O)(=O)NCc2ccncc2)c1,-2,-27,-10,5,i,.,1,-8,
CC(C)CCn1c(Oc2ccccc2Cl)nc2c1c(=O)n(C)c(=O)n2C,1,-5,-4,7,i,-10,.,-12,
O=C(O)CCC(=O)N1CCc2cc(S(=O)(=O)Nc3ccc4c(c3)OCCO4)ccc21,-1,1,-16,21,i,-30,-6,-1,
C/C=C1\COC(C(=O)NCc2cccc(OC)c2OC)(C(F)(F)F)C=C1C=C1CCCCC1 (stereo not given),-4,-12,-16,.,i,-5,71*,.,
O=C(Cc1cccc2ccccc12)NCC(=O)N1CCN(Cc2cccc(C(F)(F)F)c2)CC1,2,-27,116*,.,.,19,.,.,
Cn1c(CN2CCOCC2)nc2cc(NC(=O)COc3ccc([N+](=O)[O-])cc3)ccc21,6,-4,-17,-5,i,.,1,-5,
COCCOC(=O)C1=C(C)N=C2SCCC(=O)N2C1c1ccc(C(=O)OC)cc1 (stereo not given),4,-5,-7,-2,i,-8,.,-1,
CCCOc1cccc(-c2nnc(NC(=O)c3ccco3)s2)c1,4,2,-19,6,i,3,6,7,
O=C(Nc1ccc2c(c1)nc1n2CCN(Cc2ccccc2)C1)NC1CCCCC1,-1,1,-10,10,i,-6,-9,-2,
Cc1ccc(C(=O)N2CCN(Cc3ccc4c(c3)OCO4)CC2)c(Cl)c1,-5,-22,-6,2,i,-12,35,-12,
CN(c1ccccc1)S(=O)(=O)c1cccc(NC(=O)CCNC(=O)c2ccc([N+](=O)[O-])cc2)c1,5,-5,-18,.,.,0,28,.,
Cc1ccc(S(=O)(=O)N2CCN(c3ccc([N+](=O)[O-])cn3)CC2)cc1,5,3,.,5,i,-2,7,-12,
COc1ccc(Nc2cc(C)nc(N)n2)cc1,2,6,-14,-3,i,-8,4,8,
CCOc1ccc(S(=O)(=O)Nc2cccc(N(C)S(C)(=O)=O)c2)cc1,-5,-26,-7,6,i,-9,.,-3,
Cc1ccc(C(c2cc(Br)ccc2O)N2CCSCC2)cc1 (stereo not given),3,-3,-14,.,i,20,25,.,
CCOC(=O)C1CCN(S(=O)(=O)NC[C@H]2O[C@@H](n3cnc4c(N)ncnc43)[C@H](O)[C@@H]2O)C1 (stereo not given in full),3,4,-8,.,.,.,10,.,
CCOc1ccc(-c2nnc(-c3ccccc3)o2)cc1,-1,-1,-28,-9,i,20,.,-14,
CC(=O)c1cccc(NC(=O)CN2C(=O)COc3ccc(S(=O)(=O)N4CCOCC4)cc32)c1,-9,-1,-11,.,i,-17,-5,.,
CCCC(=O)N1CCN(c2ccc(NC(=O)c3cc4ccccc4o3)cc2Cl)CC1,-21,-24,1,1,+,90*,.,0,
Fc1ccccc1-c1nc(-c2cnccc2C(F)(F)F)no1,-6,-6,-13,-6,i,9,9,2,
COc1ccc(CN(C)CC(=O)Nc2cc3oc4ccccc4c3cc2OC)c(OC)c1,4,-1,23,-16,i,84*,6,16,

# The closing two entries of the part above lead into the next:
SMILES,MT1-MMP act inh,MT1-MMP act inh RFP,Yeast UUG start,PABP FP inh,Rce1 inhib,CSC inhib,HIV Env fusion,eIF4H FP inh,others
Fc1ccccc1-c1nc(-c2cnccc2C(F)(F)F)no1,-6,-6,-13,-6,i,9,9,2,
COc1ccc(CN(C)CC(=O)Nc2cc3oc4ccccc4c3cc2OC)c(OC)c1,4,-1,23,-16,i,84*,6,16,
Cc1ccc(NC(=O)c2ccc(COc3ccccc3[N+](=O)[O-])o2)nc1,2,-3,10,.,.,69,.,.,
CCn1ccnc1CN1CCCC(C(=O)c2ccc3cc(OC)ccc3c2)C1 (stereo not given),0,-9,-4,-17,i,-10,14,4,
O=C(CSc1nnc(C2CCCCC2)o1)N1CCCCC1,0,1,-14,-10,i,.,-26,6,
O=C1c2ccccc2C(=O)c2c1cccc2N1CCN(C/C=C/c2ccccc2)CC1,-7,-3,-13,.,.,0,5,.,
CC(C)Oc1cccc(C(=O)NC(=S)Nc2ccc(Cl)c(C(=O)O)c2)c1,1,8,-24,2,i,4,-8,-4,
COc1cc(CNc2nc3ccccc3[nH]2)cc(OC)c1OC,10,17,-13,-11,i,12,-197,-5,
NC(=O)c1c(NC(=O)c2ccc(S(=O)(=O)N3CCOCC3)cc2)sc2c1CCCCC2,0,-4,.,3,i,-4,3,-5,
CCOC(=O)c1c(NC(=O)c2ccnn2C)sc(C)c1C,0,2,.,1,i,1,.,-5,
CN1C2C=C3C(C#N)=C(N)C(C#N)(C#N)[C@@H](c4cccs4)C3C1CC2 (stereo not given in full),0,8,6,53*,i,-16,.,59*,
O=C(c1ccc(Cl)cc1Cl)N1CCOCC1,1,3,9,.,.,.,-2,.,
COc1ccc(NC(=O)c2ccccc2)cc1,4,6,-18,.,.,13,-28,.,
Cn1[nH]c(-c2ccccc2)c(/C=N/O)c1=O,1,0,.,-2,i,-4,13,1,
CCN(CC)CCn1c(=S)[nH]c2cc(C(=O)NCc3ccccc3)ccc2c1=O,2,1,4,.,.,.,-13,.,
CC(=O)c1ccc(N2CCN(C(=O)/C=C/c3cccs3)CC2)cc1,-3,-1,.,0,i,-24,9,0,
COc1cccc(-c2cnc(C(O)c3cccc(C)c3C)[nH]2)c1 (stereo not given),0,-3,-23,.,.,.,-8,.,
COc1ccc(CNS(=O)(=O)c2ccc(C3CNC(=O)C3)cc2)cc1 (stereo not given),0,-1,-1,1,i,-4,25,-1,
C[C@H]1CN(C2CCCCC2)C(=O)[C@@H]1CC(=O)Nc1ccc(Br)cc1,2,-1,-22,.,.,.,7,.,
NC(=O)CSc1nnnn1-c1ccc(OC(F)(F)F)cc1,12,4,-6,2,i,-17,-19,-9,
COc1nc(N)nc(N2CCOCC2)n1,1,4,-12,-4,i,-1,-23,4,
O=C(c1ccc(F)cc1)c1cc2ccc(O)cc2oc1=O,-10,-2,-26,4,i,-14,1,0,
CCN(Cc1ccccc1)C(=O)CN1C(=O)NC2(CC(C)CC(C)(C)C2)C1=O (stereo not given),-2,-6,7,0,.,-7,5,-13,
CCOC(=O)Nc1ccc(C)cc1C,-1,5,-22,0,i,3,.,0,
C#CCOc1ccc(/C=C2\SC(=S)N(Cc3cccnc3)C2=O)cc1,6,-1,-9,-3,i,79*,39,0,
COc1ccc(C(=O)CSc2nc(C)cc(=O)[nH]2)cc1C,1,3,-23,-13,i,-4,3,-3,
O=C(Nc1cccc(-c2cccc(F)c2)c1)C1CCN(Cc2ccc(CO)o2)CC1,3,1,6,-8,i,7,1,-2,

# The last 2 compounds of the section above lead into the next:
SMILES,MT1-MMP act inh,MT1-MMP act inh RFP,Yeast UUG start,PABP FP inh,Rce1 inhib,CSC inhib,HIV Env fusion,eIF4H FP inh,others
COc1ccc(C(=O)CSc2nc(C)cc(=O)[nH]2)cc1C,1,3,-23,-13,i,-4,3,-3,
O=C(Nc1cccc(-c2cccc(F)c2)c1)C1CCN(Cc2ccc(CO)o2)CC1,3,1,6,-8,i,7,1,-2,
O=C(c1ccc(CS(=O)Cc2ccccc2Cl)o1)N1CCN(c2ccccc2)CC1 (stereo not given),-1,0,-9,.,.,.,6,.,
O=C1NCCN(Cc2ccoc2)C1CC(=O)N(Cc1ccccc1)CC1CCC1 (stereo not given),-2,0,-13,7,i,-10,12,-5,
C=CCn1cn[nH]c1=S,-2,0,-3,18,i,0,15,2,
O=C(CN1C(=O)c2ccc([N+](=O)[O-])cc2C1=O)NCc1ccco1,0,1,13,8,i,-16,3,-6,
CCOC(=O)c1sc2nc(CSc3ccccc3)[nH]c(=O)c2c1C,-3,1,-2,10,i,42,-33,3,
COc1ccccc1-c1cc(C(F)(F)F)nc(S(=O)(=O)CCCC(=O)N2CCOCC2)n1,-8,-12,-24,16,i,82*,.,4,
O=C(CN1CCN(c2ccccc2F)CC1)NC(=O)NCc1ccccc1,2,5,.,2,.,-9,11,-1,
COc1cccc(C(=O)Oc2ccccc2/C=C\C(=O)c2cc3ccccc3o2)c1,-11,-20,-13,1,i,.,-49,-4,
OCc1ccccc1-c1ccc2nccn2c1,-1,0,-1,.,.,.,?,.,
CSc1ccc(CN(C)CC(=O)NCc2ccccc2)cc1,2,-3,.,0,i,-7,0,2,
CC(C)(C)c1nc(SCC(=O)NCc2cccs2)c2ccccc2n1,2,3,.,-13,i,-13,2,-7,
CC1(C)CC(=O)C=C(Nc2cccc(C(F)(F)F)c2)C1,2,2,-10,.,i,4,3,.,
O=C(NCc1cccs1)c1ccccc1F,4,1,0,3,i,-4,.,-1,
Cc1c(Cl)ccc(S(=O)(=O)N2CCN(C)CC2)c1Cl,4,1,-16,.,.,.,5,.,
COC(C(=O)N/N=C(\C)c1ccc(C(C)(C)C)cc1)c1ccccc1 (stereo not given),10,6,-13,-1,i,5,-14,-8,
Cc1ccc(/C=N\NC(=O)c2cc(OCC(F)(F)F)ccc2OCC(F)(F)F)cc1,-1,-1,-21,-8,i,.,.,-1,
